CSC inhib – blocks cancer stem cells; cancer stem cell-like cells viability, luminescence; inhibition, % at 7.5 µM; 1.1% of 300,000 active; AID 2717;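 active = mean at 75% or more and at least half the replicates too; tested in HMLE shEcad cells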;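 note: 0% = median of negative and 100% = median of positive control wells; the first replicate is given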
PABP FP inh – PABP-poly(A) binding inhibition | inhibition, % at 35 µM | P11940 | 1% of 290,000 active | PABP-poly(A) RNA binding, fluorescence polarization | AID 2014;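 active = 50% or more with normal probe brightness, or confirmed in later tests; about a fifth of its hits are not listed in these tables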;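 note: calls also rest on retests at 20 µM and on dose response follow-up; controls were probe without protein and protein plus probe with vehicle; some compounds called inactive have numbers as strong as hits; many hits fall short of the cut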
Rce1 inh – inhibitors of yeast Ras-converting enzyme. Q03530. yeast membranes, quenched prenylated peptide cleavage fluorescence. calls only. 0.27% of 290,000 active. AID 2563;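 active = fall in fluorescence gain of 50% or more versus controls, with final raw signal at or below 3038400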;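 note: plate controls were neutral control wells for no effect and wells lacking membranes for full effect; tested at 10 µM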
Target sequence (Q03530 whole entry, looked up): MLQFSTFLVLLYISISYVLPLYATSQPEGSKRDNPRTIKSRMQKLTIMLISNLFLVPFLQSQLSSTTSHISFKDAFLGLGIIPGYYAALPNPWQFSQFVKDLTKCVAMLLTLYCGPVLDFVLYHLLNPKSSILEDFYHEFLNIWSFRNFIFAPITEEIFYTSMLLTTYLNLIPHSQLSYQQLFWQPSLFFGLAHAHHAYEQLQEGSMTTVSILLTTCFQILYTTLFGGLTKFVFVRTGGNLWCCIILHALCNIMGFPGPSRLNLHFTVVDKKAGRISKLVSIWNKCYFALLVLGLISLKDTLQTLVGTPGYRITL
eIF4H inh – inhibitors of RNA binding by human eIF4H; Q15056; eIF4H fluorescence polarization binding assay; inhibition, % at 35 µM; 0.94% of 290,000 active;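 active = 50% or more with normal probe brightness, or confirmed in later tests; about a fifth of its hits are not listed in these tables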;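 note: calls also rest on retests at 20 µM and on dose response follow-up; 0% = protein and probe with vehicle and 100% = probe without protein; strong numbers were not always called active; many hits fall short of the cut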
Yeast UUG start – alters start codon recognition fidelity in yeast. S. cerevisiae UUG-firefly luciferase reporter, luminescence/redox ratio. activity score, % at 18.7 µM. 0.13% of 350,000 active;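 active = replicate mean at a twofold rise or more, about +100% in these data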;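 note: firefly luciferase made from a UUG start codon reports start codon fidelity; reporter light over untreated wells divided by growth signal over untreated wells; some hits fall short of that in this replicate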
MT1-MMP act inh – blocks activation of human MT1-MMP; P50281; GFP/RFP ratio change, % at 20 µM; HT1080 RFP-PRO-GFP cells, GFP/RFP ratio fluorescence, overnight; percent of plate control window, DMSO zero; 0.061% of 360,000 active; AID 651647;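 active = GFP/RFP ratio change of at least 30% with cell ATP level not reduced by more than half and red fluorescence within 50% of control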; note: strong numbers were not always called active
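Read-out: GFP/RFP fluorescence ratio; Test system: RFP-PRO-GFP reporter HT1080 cells; Compound dosing: single-point 20 µM compound, 1% DMSO; Times: overnight compound exposure at 37 °C.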
Env fusion inh – HIV envelope-mediated fusion inhibition; HeLa-JRFL Env/CEM21 cell fusion, luciferase; inhibition, % at 12.3 µM; 1.1% of 360,000 active;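 active = mean replicate inhibition score of at least 50 and every replicate individually at or above 50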;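 note: 0% = plate neutral controls and 100% = maraviroc near 300 nM; one replicate is shown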
MT1-MMP act inh RFP – further read-out of MT1-MMP act inh, marked with its call; RFP signal change, %; measured here: RFP expression control read;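 0 = vehicle wells; hits needed this value within 50% of zero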
The depositor's hits bear a star. This is a subset; count on the stated rates, not on these rows.

`C[C@H](CCC(=O)NCC(=O)O)[C@H]1CC[C@H]2C3[C@H](O)C[C@@H]4C[C@H](O)CC[C@]4(C)[C@H]3C[C@H](O)[C@]12C` (some centres not stated) gave CSC inhib -13, Rce1 inh inactive, Yeast UUG start -22, MT1-MMP act inh 3, Env fusion inh -5 and MT1-MMP act inh RFP 3.
Screening COCc1cc(C)n(CC(=O)Nc2c(C)cccc2C)c(=O)c1C#N returned CSC inhib -7, PABP FP inh -5, Rce1 inh inactive, eIF4H inh -9, Yeast UUG start -7, MT1-MMP act inh -1, Env fusion inh 2 and MT1-MMP act inh RFP 2.
`C#CCOc1c(Cl)cc(/C=N/NC(N)=S)cc1OCC` gave CSC inhib 12, PABP FP inh 0, Rce1 inh inactive, eIF4H inh 2, Yeast UUG start -22, MT1-MMP act inh 13 and MT1-MMP act inh RFP 8.
Screening COc1ccc(OC)c(C(=O)N/N=C/c2ccccn2)c1 returned CSC inhib 2, PABP FP inh -7, Rce1 inh inactive, eIF4H inh -9, Yeast UUG start -11, MT1-MMP act inh -2, Env fusion inh 1 and MT1-MMP act inh RFP -1.
For CCOC(=O)[C@@H]1[C@H]2COc3cc(OC)ccc3[C@@H]2N2C(=O)N(c3ccc(C(F)(F)F)cc3)C(=O)[C@@]12C the results were CSC inhib -16, PABP FP inh -3, Rce1 inh inactive, eIF4H inh -5, Yeast UUG start 8, MT1-MMP act inh 0, Env fusion inh -25 and MT1-MMP act inh RFP -3.
Screening COc1ccc(CCN2CC(C(=O)NCCc3ccccn3)CCC2=O)cc1 (configuration not stated) returned CSC inhib -9, PABP FP inh -2, Rce1 inh inactive, eIF4H inh 0, Yeast UUG start -18, MT1-MMP act inh -1, Env fusion inh 25 and MT1-MMP act inh RFP -1.
`CN(C)C(=O)c1ccc(NC(=O)CN2C(=O)NC3(CCCc4ccccc43)C2=O)cc1` (configuration not stated) gave CSC inhib -1, Rce1 inh inactive, Yeast UUG start -13, MT1-MMP act inh 3 and MT1-MMP act inh RFP 0.
For CC(CCc1ccccc1)NC(=O)C1CCCN(C(=O)c2cc3sccc3n2C)C1 (configuration not stated) the results were CSC inhib -5, PABP FP inh 4, Rce1 inh inactive, eIF4H inh -1, Yeast UUG start -11, MT1-MMP act inh -2 and MT1-MMP act inh RFP -3.
`CCNC(=O)/C(=C/c1ccco1)NC(=O)/C=C/c1ccccc1` gave CSC inhib -1, PABP FP inh -2, Rce1 inh inactive, eIF4H inh 3, Yeast UUG start -8, MT1-MMP act inh -10, Env fusion inh -67 and MT1-MMP act inh RFP -2.
`COc1ccc(/C(C)=N/NC(=O)CNC(=O)c2cccnc2)cc1` gave CSC inhib 4, PABP FP inh 1, Rce1 inh inactive, eIF4H inh -3, Yeast UUG start -5, MT1-MMP act inh -3, Env fusion inh -5 and MT1-MMP act inh RFP 1.
Screening Cc1ccc(S(=O)(=O)N2CCN(C(=O)COC(=O)Cc3ccc(F)cc3)CC2)c(C)c1 returned Yeast UUG start 19, MT1-MMP act inh -4, Env fusion inh 1 and MT1-MMP act inh RFP 1.
CCOC(=O)Nc1sc(NS(=O)(=O)c2ccc(C)cc2)nc1C was read as CSC inhib -18, PABP FP inh -6, Rce1 inh inactive, eIF4H inh 2, Yeast UUG start -30, MT1-MMP act inh 2 and MT1-MMP act inh RFP -1.
For COC(=O)c1ccc(NC(=O)CSc2nnc(C3CC3)n2C)cc1 the results were CSC inhib -4, PABP FP inh 4, Rce1 inh inactive, eIF4H inh -12, Yeast UUG start -12, MT1-MMP act inh -1, Env fusion inh -2 and MT1-MMP act inh RFP 2.
CCOc1ccc(N2C(=O)CC(NCCc3ccc(S(N)(=O)=O)cc3)C2=O)cc1 (configuration not stated) was read as CSC inhib 15, PABP FP inh 8, Rce1 inh inactive, eIF4H inh -8, Yeast UUG start -5, MT1-MMP act inh 4 and MT1-MMP act inh RFP 1.
For COc1ccc(NC(=O)CN(C)C(=O)c2cccc(S(=O)(=O)N3CCN(Cc4ccccc4)CC3)c2)cc1 the results were CSC inhib -5, PABP FP inh 8, Rce1 inh inactive, eIF4H inh 2, Yeast UUG start -24, MT1-MMP act inh -7 and MT1-MMP act inh RFP -24.

The last three records of the section before lead into the next.
For COC(=O)c1ccc(NC(=O)CSc2nnc(C3CC3)n2C)cc1 the results were CSC inhib -4, PABP FP inh 4, Rce1 inh inactive, eIF4H inh -12, Yeast UUG start -12, MT1-MMP act inh -1, Env fusion inh -2 and MT1-MMP act inh RFP 2.
CCOc1ccc(N2C(=O)CC(NCCc3ccc(S(N)(=O)=O)cc3)C2=O)cc1 (configuration not stated) was read as CSC inhib 15, PABP FP inh 8, Rce1 inh inactive, eIF4H inh -8, Yeast UUG start -5, MT1-MMP act inh 4 and MT1-MMP act inh RFP 1.
For COc1ccc(NC(=O)CN(C)C(=O)c2cccc(S(=O)(=O)N3CCN(Cc4ccccc4)CC3)c2)cc1 the results were CSC inhib -5, PABP FP inh 8, Rce1 inh inactive, eIF4H inh 2, Yeast UUG start -24, MT1-MMP act inh -7 and MT1-MMP act inh RFP -24.
Cc1ccc(C)c(OCC(=O)Nc2nc3ccc([N+](=O)[O-])cc3s2)c1C was read as CSC inhib 15, PABP FP inh -4, Rce1 inh inactive, eIF4H inh -2, Yeast UUG start -9, MT1-MMP act inh -16, Env fusion inh 20 and MT1-MMP act inh RFP -22.
COc1ccc(/C=C2\SC(=S)N(Cc3cccnc3)C2=O)cc1C was read as CSC inhib 80*, PABP FP inh -2, Rce1 inh inactive, eIF4H inh -14, MT1-MMP act inh 4 and MT1-MMP act inh RFP -1.
CC(O)CNCCCCOc1ccc(OCc2ccccc2)cc1 (configuration not stated) was read as CSC inhib 26, PABP FP inh 1, Rce1 inh inactive, eIF4H inh 7, MT1-MMP act inh 7, Env fusion inh 8 and MT1-MMP act inh RFP 1.
Screening CC(C)(C)c1ccc(C(=O)OCCNC(=O)c2c(Cl)nc3ccccn23)cc1 returned CSC inhib -14, PABP FP inh 18, Rce1 inh inactive, eIF4H inh 0, Yeast UUG start -10, MT1-MMP act inh -3, Env fusion inh -9 and MT1-MMP act inh RFP -2.
For COc1cc(C)nc(N(C)S(=O)(=O)c2ccccc2Cl)n1 the results were CSC inhib -16, PABP FP inh -10, Rce1 inh inactive, eIF4H inh 4, Yeast UUG start -4, MT1-MMP act inh -4 and MT1-MMP act inh RFP -13.
Screening S=c1[nH]nc2ccccn12 returned Yeast UUG start -33, MT1-MMP act inh 3, Env fusion inh 29 and MT1-MMP act inh RFP 4.
`O=C1OC(NC(=O)c2ccccc2)C(N2CCOCC2)=C1Cl` (configuration not stated) gave CSC inhib -9, PABP FP inh 10, Rce1 inh inactive, eIF4H inh -9, Yeast UUG start -1, MT1-MMP act inh -12, Env fusion inh -1 and MT1-MMP act inh RFP -11.
O=C(NNc1c(Cl)cccc1Cl)c1c(F)cccc1Cl was read as CSC inhib -13, PABP FP inh 7, Rce1 inh inactive, eIF4H inh -3, Yeast UUG start -9, MT1-MMP act inh 0, Env fusion inh 24 and MT1-MMP act inh RFP 3.
`CC(=O)NC1CC2CCCC(C1)N2CC(=O)NCc1ccc(F)cc1` (configuration not stated) gave PABP FP inh -10, Rce1 inh inactive, eIF4H inh -13, Yeast UUG start -10, MT1-MMP act inh -3, Env fusion inh -54 and MT1-MMP act inh RFP 2.
For COc1ccc(NC(=O)N2CCCC(C(=O)NCCc3ccccc3)C2)cc1 (configuration not stated) the results were PABP FP inh 7, Rce1 inh inactive, eIF4H inh -12, Yeast UUG start -6, MT1-MMP act inh -2, Env fusion inh -7 and MT1-MMP act inh RFP 2.
`COc1ccc(S(=O)(=O)N(CC(=O)NC2CCCC2)c2ccccc2OC)cc1` gave CSC inhib 4, PABP FP inh -7, eIF4H inh -1, Yeast UUG start 1, MT1-MMP act inh -3, Env fusion inh 1 and MT1-MMP act inh RFP -2.
Cc1cccn2c(=O)cc(COC(=O)C(C)Oc3ccccc3)nc12 (configuration not stated) was read as CSC inhib -7, Yeast UUG start -9, MT1-MMP act inh 3 and MT1-MMP act inh RFP 3.
For COc1ccc(N2CCCn3c2nc2c3c(=O)n(Cc3ccccc3F)c(=O)n2C)c(OC)c1 the results were CSC inhib -17, PABP FP inh -3, Rce1 inh inactive, eIF4H inh -4, Yeast UUG start 5, MT1-MMP act inh 0, Env fusion inh 25 and MT1-MMP act inh RFP -15.
`COc1ccc(CN2CN=C(Nc3nc4ccccc4s3)NC2)cc1` gave PABP FP inh -1, Rce1 inh inactive, eIF4H inh 2, Yeast UUG start -18, MT1-MMP act inh 2 and MT1-MMP act inh RFP 0.
`O=C(Nc1ccccc1)OCc1cc(-c2ccccc2Cl)on1` gave CSC inhib 61, PABP FP inh 0, Rce1 inh inactive, eIF4H inh -2, Yeast UUG start -15, MT1-MMP act inh -2 and MT1-MMP act inh RFP -3.
For CN(Cc1nc(-c2cnccn2)no1)C1CC(C)(C)NC(C)(C)C1 the results were CSC inhib -8, PABP FP inh 2, Rce1 inh inactive, eIF4H inh -6, MT1-MMP act inh -5, Env fusion inh 1 and MT1-MMP act inh RFP 0.
`CCc1nc(-n2[nH]c(=O)c3ccccc3c2=O)c2c3c(sc2n1)CCCC3` gave CSC inhib 5, Rce1 inh inactive, Yeast UUG start -6, MT1-MMP act inh 21, Env fusion inh -31 and MT1-MMP act inh RFP 5.
Cc1cccc(N=C2NC(=O)/C(=C3/C(=O)N(C)c4ccccc43)S2)c1C was read as CSC inhib -10, PABP FP inh 3, Rce1 inh inactive, eIF4H inh 13, Yeast UUG start -5, MT1-MMP act inh -4 and MT1-MMP act inh RFP -2.
For Cn1c(CNS(=O)(=O)c2ccc(Cl)cc2)cc(=O)n(C)c1=O the results were CSC inhib -13, PABP FP inh -1, Rce1 inh inactive, eIF4H inh -1, Yeast UUG start -12 and Env fusion inh -6.
For COc1cc(O)c(C(=O)O)c(CCc2ccccc2)c1 the results were Yeast UUG start -12, MT1-MMP act inh 6, Env fusion inh -12 and MT1-MMP act inh RFP 4.
COc1cc(COc2ccc3c(C)c(CC(=O)O)c(=O)oc3c2C)cc(OC)c1OC was read as CSC inhib 2, PABP FP inh 7, Rce1 inh inactive, eIF4H inh -9, Yeast UUG start 4, MT1-MMP act inh 5, Env fusion inh -5 and MT1-MMP act inh RFP 5.
O=[N+]([O-])c1ccccc1S(=O)(=O)Nc1ccc(S(=O)(=O)N2CCCC2)cc1 was read as CSC inhib 1, Yeast UUG start 11, MT1-MMP act inh -4, Env fusion inh -5 and MT1-MMP act inh RFP 2.
For CCOc1ccc(CCNC(=O)C2CSC3(C)CCC(=O)N23)cc1OCC (configuration not stated) the results were CSC inhib -4, PABP FP inh 2, Rce1 inh inactive, eIF4H inh -5, Yeast UUG start -5, MT1-MMP act inh -3, Env fusion inh -3 and MT1-MMP act inh RFP -2.
CCOC(=O)N1CCN(C(=O)c2cc3c(s2)-c2c(C)cccc2OC3)CC1 was read as CSC inhib 2, PABP FP inh 7, Rce1 inh inactive, eIF4H inh -4, Yeast UUG start -12, MT1-MMP act inh 2, Env fusion inh 5 and MT1-MMP act inh RFP 2.
Screening Cc1ccc2nc3c(cc(C(=O)NC4CCS(=O)(=O)C4)n3Cc3ccccc3)c(=O)n2c1 (configuration not stated) returned CSC inhib -17, PABP FP inh 4, Rce1 inh inactive, eIF4H inh -9, Yeast UUG start -13, MT1-MMP act inh 1, Env fusion inh -1 and MT1-MMP act inh RFP -3.
`CC(C)OCCCNC(=O)c1ccc2c(c1)S(=O)(=O)c1ccccc1C2=O` gave CSC inhib -5, PABP FP inh 3, Rce1 inh inactive, eIF4H inh -9, Yeast UUG start 14, MT1-MMP act inh 0, Env fusion inh 5 and MT1-MMP act inh RFP -1.
For O=C(Cc1ccccc1)N/N=C/c1ccc2c(c1)OCO2 the results were CSC inhib -5, PABP FP inh 7, Rce1 inh inactive, eIF4H inh 0, MT1-MMP act inh 0, Env fusion inh -44 and MT1-MMP act inh RFP -4.
COc1cccc(-n2c(SCC(=O)c3c[nH]c4ccccc34)nc3ccccc3c2=O)c1 was read as CSC inhib 0, PABP FP inh 9, Rce1 inh inactive, eIF4H inh -13, MT1-MMP act inh -7, Env fusion inh 17 and MT1-MMP act inh RFP -9.

High-throughput results deposited in PubChem by several laboratories.
